# Compound activity from PubChem BioAssay.
# miR-21 reporter = qHTS Assay for Modulators of miRNAs and/orActivators of miR-21; HeLa miR-21 FLuc reporter, luciferase, 48 h; Potency, µM (series often up to 38.3 µM), for the others: at the top dose reporter change, positive = more light; 340,000 tested, under 10 active; AID 2288, 2010; active = well fitted rising curve with a large enough effect; inconclusive = small, poorly fitted or top-dose-only effect; inactive = no such curve, though single readings can be large or run the other way;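 also: % of control where 0% means no effect; miR-21 action dims this reporter so a rising signal means less miR-21 action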
#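 Compounds were titrated across several concentrations (up to approximately 40 uM) and incubated 48 hours with HeLa miR-21-FLuc reporter cells (miR-21 target sequence downstream of FLuc, endogenous miR-21). Readout was firefly luciferase luminescence after lytic detection reagent.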
# * marks the source's active call; other numbers are inactive results; ? = inconclusive. Only part of the results is shown. The share of hits here may be higher or lower than overall.
SMILES,miR-21 reporter
Cc1noc(/C=C/c2ccccc2F)c1S(=O)(=O)N1CCC(C(=O)NCC(C)c2ccccc2)CC1 (stereo unspecified),5%
COc1ccc(CCNc2nc(SCc3cccc(Cl)c3)nc3ccccc23)cc1OC,-7%
COc1ccc(-c2nc3c(C#N)c[nH]n3c2NC2CCCCC2)cc1,3%
Cc1ccc(NC(=O)Cn2c(=O)n(CCC(=O)N3CCc4ccccc4C3)c(=O)c3ccccc32)cc1,-1%
Cc1ccc(CSc2nc3cccnc3n2Cc2ccc(C(=O)NCCc3ccccc3)cc2)cc1,-23%
CCCCCSc1nc2sc3c(c2c(=O)n1-c1ccc(OC)cc1)CCN(C(C)=O)C3,1%
CC(=O)N1c2ccc(S(=O)(=O)NCCc3cccc(C)c3)cc2CC1C (stereo unspecified),9%
Cc1nn(C(C)C(=O)NCc2cccc(F)c2)c(=O)c2c1sc1ccccc12 (stereo unspecified),26%
CCOc1c(CNCCSc2nnnn2C)cccc1OC,-2%
COC(=O)c1c(C)oc2ccc(N(C(=O)Oc3ccccc3)S(=O)(=O)c3ccc(C(C)(C)C)cc3)cc12,11%
Cc1cccc(N2CCN(C(=O)c3c(C)oc4ncnc(N5CCCCC5)c34)CC2)c1C,24%
Cc1ccc(NS(=O)(=O)c2ccc3nc(-c4ccccc4)[nH]c3c2)c(Br)c1,16%
COc1ccc(-c2cc(-c3ccccc3)nc3c2COc2ccc(F)cc2-3)cc1,-1%
CCOC(=O)C(Cc1c[nH]c2ccccc12)NC(=O)COc1ccc(Cl)cc1 (stereo unspecified),0%
CCCCN(Cc1ccccc1)C(=O)CN(C)S(=O)(=O)c1ccc2c(c1)c(=O)n(C)c(=O)n2C,-9%
CCc1ccccc1N1CC(c2nc3ccccc3n2CCC2CCCCC2)CC1=O (stereo unspecified),?
Cc1c(Cl)cccc1-c1ccc(CNCCSc2nnnn2-c2ccccc2)o1,4%
O=C(OCC1CCCO1)c1ccc2c(c1)N(Cc1c(F)cccc1Cl)C(=O)c1ccccc1S2(=O)=O (stereo unspecified),2%
Cc1cc(NC(=O)c2ccccc2Cl)ccc1NC(=O)c1ccccc1,-16%
COc1ccc(-c2cnc(C)o2)cc1S(=O)(=O)Nc1ccc(C)c(N(C)C)c1,-2%
Cc1ccccc1C(=O)Nc1ccc2nc(N3CCCCC3)cc(C)c2c1,-6%
Cn1c(=O)c(=O)n(C)c2cc(S(=O)(=O)N3CCN(c4ccccc4)CC3)ccc21,-1%
O=C(CSc1nc2ccsc2c(=O)n1Cc1ccccc1Cl)NCc1ccc(Cl)cc1,1%
CCOc1ccc(-c2c(C)nn3c(C)c(C(=O)NCCc4ccccc4)cnc23)cc1OCC,-6%
Cc1ccc2nc(COc3cccc(NC(=O)COc4ccccc4F)c3)cc(=O)n2c1,-31%

# (further entries)
SMILES,miR-21 reporter
FC(F)(F)c1cccc(N2CCN(Cc3nnc(-c4ccc5c(c4)OCO5)o3)CC2)c1,-11%
COc1cccc(NC(=O)CSc2nc3c(oc4ccccc43)c(=O)n2Cc2ccco2)c1,0%
Cc1cccc(NC(=O)N2CCN(C(=O)c3nsc4ccccc34)CC2)c1C,-5%
Cc1ccc(-n2nc(-c3ccc(F)cc3)c3cnc4cc5c(cc4c32)OCO5)cc1C,-1%
Cn1c(=O)oc2cc(S(=O)(=O)Nc3ccc(C(=O)O)cc3)ccc21,0%
Cc1ccc(OCC(=O)Nc2ccc3nn(-c4ccc(C)cc4)nc3c2)cc1,-18%
Cc1nn(-c2ccc(N3CCCC3)nn2)c(C)c1CCC(=O)NCc1ccccc1,-10%
Cc1nc(-c2ccc(Cl)cc2)sc1CCNC(=O)C(=O)Nc1ccc2c(c1)OCCO2,-13%
COc1ccc(CCNC(=O)c2ccc3c(c2)CCN3S(=O)(=O)c2ccc(Cl)cc2)cc1,21%
COc1ccc(OC)c(CNC(=O)c2cc(=O)[nH]c3ccc(S(=O)(=O)N4CCCCC4C)cc23)c1 (stereo unspecified),4%
Cc1cc(C)n(-c2nc3ccccc3nc2Nc2cc(Cl)ccc2C)n1,0%
Cc1ccc(C)c(N2CCN(Cc3csc(C)c3)CC2)c1,?
CCOc1cc(CNC(=O)C(NS(=O)(=O)c2cccs2)C(C)C)cc(OCC)c1OCC (stereo unspecified),-2%
Cc1ccc(-c2nc3n(n2)C(c2ccccc2C)C=C(c2ccc(Cl)cc2)N3)cc1 (stereo unspecified),-3%
Cc1n[nH]c(C)c1S(=O)(=O)N(CC(=O)NC(C)c1ccccc1)c1ccc(C(C)C)cc1 (stereo unspecified),19%
O=C(OCCCOC(=O)c1ccccc1O)c1ccccc1O,-8%
O=C(NC1CC(=O)N(c2ccc(F)cc2)C1)c1ccc2c(c1)OCO2 (stereo unspecified),-3%
COc1ccc(Cl)cc1S(=O)(=O)Nc1cccc(-c2ccc(N3CCCC3)nn2)c1,-11%
Cc1ccc(-c2cn3nc(N4CCCC(C(=O)NCc5ccc(F)cc5)C4)sc3n2)cc1 (stereo unspecified),18%
CC1CCc2c(sc(NC(=O)c3cc4nc(-c5ccc(Cl)cc5)cc(C(F)(F)F)n4n3)c2C#N)C1 (stereo unspecified),-9%
COc1cccc(NC(=O)Cn2c(=O)c3cccn3c3ccc(F)cc32)c1,-3%
CN1CCN(C(=O)c2cnn(-c3cccc(Cl)c3)c2C2CCN(C(=O)OC(C)(C)C)CC2)CC1,2%
Cc1cccc(NC(=O)Cn2c(=O)n(Cc3ccc4c(c3)OCO4)c(=O)c3oc4ccccc4c32)c1C,0%
Cc1noc(Cn2c(=O)c3cc4c(cc3n(CC(=O)Nc3ccc(C(C)C)cc3)c2=O)OCO4)n1,-3%
Cc1ccc2cccc(NC(=O)COc3cc(C)c(Cl)c(C)c3)c2n1,-5%

# The results go on.
SMILES,miR-21 reporter
CCc1cc(C(=O)NCc2ccccc2)no1,-39%
CCCn1ccc2c(OCC(=O)Nc3ccc(F)cc3F)cccc2c1=O,3%
CCCOc1ccc(-c2cc(C(F)(F)F)c(C#N)c(SCCC(=O)O)n2)cc1,5%
CCN(CC)CCCNC(=O)c1ccc(-c2nc(CN3CCc4ccccc43)c(C)o2)cc1,-20%
CCc1cccc(C)c1Nc1nn2c(=O)c3ccccc3nc2s1,1%
Cc1ccc(CSc2nc(-c3ccccc3C)nc3c2Cc2c(CO)cnc(C)c2O3)cc1,0%
Cc1c(Cl)cccc1NC(=O)C(=O)NCCc1csc(-c2cccc(F)c2)n1,0%
CCN(C(=O)c1cccn(Cc2ccccc2C)c1=O)c1ccccc1,-1%
C[C@]12CC[C@@H]3c4ccc(O)cc4[C@@H](O)C[C@H]3[C@@H]1CC[C@@H]2O,-3%
CCn1cc2nc(SCc3ccc(C)cc3)n(CCc3ccccc3)c(=O)c2n1,9%
Cc1ccccc1CSc1nc2c(sc3ccccc32)c(=O)n1CCCOC(C)C,-10%
CN1c2ccc(Cl)cc2-c2nc(SCC(=O)NCc3ccccc3)ncc2S1(=O)=O,10%
CCOC(=O)c1scc(-c2ccc(C)cc2)c1S(=O)(=O)N1CCN(c2ccccc2F)CC1,10%
CCc1cccc(CC)c1NC(=O)CN1CCc2cc(OC)c(OC)cc2C1,17%
CCc1ccc(-c2nn(CC(=O)NC3CCCCC3)c3c2cnc2ccc(C)cc23)cc1,2%
CCn1c2ccccc2c2cc(CN3CCN(Cc4ccc(OC)c(OC)c4)CC3)ccc21,0%
Cc1ccc(NC(=O)C2CCC(CNS(=O)(=O)c3ccc4c(c3)C(C)(C)C(=O)N4C)CC2)cc1 (stereo unspecified),-2%
Cc1ccc(Cl)cc1NC(=O)Cn1c(=O)oc2cc(S(=O)(=O)N3CCCCCC3)ccc21,0%
COc1ccc(NC(=O)c2ccco2)cc1NC(=O)c1cc(Br)ccc1Cl,-1%
CCc1nnc(NC(=O)C(=O)c2cc(C)n(-c3ccccc3)c2C)s1,0%
CSc1ccc(CCNC(=O)C(C)n2nc(C)c3sc4ccccc4c3c2=O)cc1 (stereo unspecified),?
COc1ccc(CCNS(=O)(=O)c2c(C)nc3sccn3c2=O)cc1OC,5%
Cc1ccc(NC(=O)c2c(C)oc3ccc(O)c(CN(C)Cc4ccccc4)c23)c(C)c1,?
Cc1oc2ncn(C)c(=O)c2c1C(=O)N1CCN(c2ccc(Cl)cc2)CC1,0%
Cc1ccc(NC(=O)C(=O)NCC(c2ccc3c(c2)OCO3)N2CCN(c3ccccc3)CC2)cc1 (stereo unspecified),-2%

# (cont.)
SMILES,miR-21 reporter
COc1cccc(C2=CC(c3ccccc3F)n3ncc(C(=O)Nc4ccc(C)cc4)c3N2)c1 (stereo unspecified),19%
COC(=O)c1ccccc1NC(=O)C1CCN(C(=O)N2CC(C)Oc3ccccc32)CC1 (stereo unspecified),-6%
CCOC(=O)c1cnc2ccccc2c1Nc1ccc(N2CCOCC2)cc1,4%
CCOc1ccc(N2CC(NC(=O)Cc3ccccc3)CC2=O)cc1 (stereo unspecified),-1%
CCC(=O)N1c2ccccc2CC1C(=O)NCc1ccccc1Cl (stereo unspecified),-1%
Cc1cc(C)cc(-n2ccnc2SCC(=O)Nc2nc3ccccc3s2)c1,4%
CC(=O)N1CCCc2cc(S(=O)(=O)N3CCCC(C(=O)Nc4ccc(C)c(C)c4)C3)ccc21 (stereo unspecified),26%
Cc1cc2c(n1-c1ccc(C(=O)NCc3ccccc3Cl)cc1)CCCC2,18%
CC1Cc2cc(S(=O)(=O)CCC(=O)Nc3ccccc3F)ccc2N1C(=O)C1CC1 (stereo unspecified),7%
CSc1ccc(CNC(=O)Cc2csc3ccccc23)cc1,-34%
Cc1ccc(N2CC(NC(=O)C3CCCC3)CC2=O)cc1C (stereo unspecified),-4%
COc1ccc(CC(=O)Nc2nc3c(s2)CC(C)CC3)cc1 (stereo unspecified),-42%
CCN(CC)C(=O)Cn1c(=O)n(-c2ccc(C)c(C)c2)c(=O)c2c3c(sc21)CCCCC3,-6%
O=C(c1ccc2c(c1)N(Cc1cccc(Cl)c1)C(=O)c1ccccc1S2(=O)=O)N1CCCCC1,10%
Cc1ccc2c(c1)c1c3n2CCN(C(=O)c2cccc(C(F)(F)F)c2)C3CCC1 (stereo unspecified),7%
CCn1c(CNC(=O)c2ccc(OC)cc2)nnc1SCC(=O)Nc1ccc(F)cc1,-8%
CCC(C)NC(=O)Cn1c(=O)n(-c2ccc(C)cc2)c(=O)c2ccccc21 (stereo unspecified),0%
COC(=O)c1nnn(CC(=O)Nc2c(C)cccc2C)c1N,0%
Cc1c(C(=O)NCCc2ccc(Cl)cc2)sc2nc3n(c(=O)c12)CCCC3,21%
Cc1cc(C)c2nc(C)cc(Nc3cccc(C(=O)O)c3)c2c1,0%
COc1cccc2cc(-c3nc4ccc(C)cc4[nH]3)c(=O)oc12,-54%
CN1CCN(C(=O)Nc2cccc(Cl)c2)c2cccnc21,-12%
Cc1ccc(-n2c(=O)c3c(C)c(C)sc3n(CC(=O)NCc3ccccc3)c2=O)cc1C,-28%
Cc1ccc(C)c(-n2nnc(-c3nc(-c4ccc(Cl)cc4)no3)c2N)c1,-41%
Cc1cc(C)cc(NC(=O)c2cc3c(=O)n(Cc4ccco4)ccc3nc2C)c1,2%

# (continued)
SMILES,miR-21 reporter
COc1ccc(OCC(=O)OCc2cc(=O)n3cc(C)sc3n2)cc1,-1%
O=C(/C=C/c1ccccc1)Nc1nc2n(n1)C(c1ccc(Cl)cc1)C=C(c1ccccc1)N2 (stereo unspecified),0%
COc1cccc(NC(=O)CSc2nc3cc(OC)c(OC)cc3c3nc(-c4ccccc4)nn23)c1,-3%
COc1ccc(CCNC(=O)c2ccc3c(Cl)c4c(nc3c2)CCCC4)c(OC)c1,?
CN(C)c1cccc(C(=O)Nc2ccc(-c3nc4ccccc4s3)cc2)c1,23%
COc1cccc(OCc2nc3ccccc3n2CCOc2ccc(C)cc2)c1,-25%
COc1ccc(NC(=O)c2sc3nc(C)c(C(=O)Nc4ccc(C)cc4C)c(-c4ccc(C)o4)c3c2N)cc1,1%
CCc1ccc(NC(=O)Cn2ccn(Cc3ccccc3OC)c(=O)c2=O)cc1,-4%
COc1ccc(-n2ncc(C(=O)N3CCN(c4cc(C)ccc4C)CC3)c2C2CCN(C(=O)OC(C)(C)C)CC2)cc1,-4%

# Already shown: entries from further up.
SMILES,miR-21 reporter
COc1cccc2cc(-c3nc4ccc(C)cc4[nH]3)c(=O)oc12,-54%
CN1CCN(C(=O)Nc2cccc(Cl)c2)c2cccnc21,-12%
Cc1ccc(-n2c(=O)c3c(C)c(C)sc3n(CC(=O)NCc3ccccc3)c2=O)cc1C,-28%
Cc1ccc(C)c(-n2nnc(-c3nc(-c4ccc(Cl)cc4)no3)c2N)c1,-41%
Cc1cc(C)cc(NC(=O)c2cc3c(=O)n(Cc4ccco4)ccc3nc2C)c1,2%
COc1ccc(OCC(=O)OCc2cc(=O)n3cc(C)sc3n2)cc1,-1%
O=C(/C=C/c1ccccc1)Nc1nc2n(n1)C(c1ccc(Cl)cc1)C=C(c1ccccc1)N2 (stereo unspecified),0%
COc1cccc(NC(=O)CSc2nc3cc(OC)c(OC)cc3c3nc(-c4ccccc4)nn23)c1,-3%
COc1ccc(CCNC(=O)c2ccc3c(Cl)c4c(nc3c2)CCCC4)c(OC)c1,?
CN(C)c1cccc(C(=O)Nc2ccc(-c3nc4ccccc4s3)cc2)c1,23%
COc1cccc(OCc2nc3ccccc3n2CCOc2ccc(C)cc2)c1,-25%
COc1ccc(NC(=O)c2sc3nc(C)c(C(=O)Nc4ccc(C)cc4C)c(-c4ccc(C)o4)c3c2N)cc1,1%
CCc1ccc(NC(=O)Cn2ccn(Cc3ccccc3OC)c(=O)c2=O)cc1,-4%
COc1ccc(-n2ncc(C(=O)N3CCN(c4cc(C)ccc4C)CC3)c2C2CCN(C(=O)OC(C)(C)C)CC2)cc1,-4%
